High-throughput results (PubChem)
RGS16-Gao HTS = regulators of human RGS16-Galphao interaction; AID 1441; 0.38% of 220,000 active; O15492+P09471; bead-based flow cytometry RGS16-Galphao binding, fluorescence; actives lie on both sides; binding response (% of control), % at 10 µM;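 active = below 25% or above 175%, edge rows of some plates excepted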;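 note: Galphao activated by GDP with aluminum fluoride before binding; 100% = wells without compound and 0% = beads without RGS; some results beyond the cut were filed as inactive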
Target sequence (O15492 whole entry, looked up): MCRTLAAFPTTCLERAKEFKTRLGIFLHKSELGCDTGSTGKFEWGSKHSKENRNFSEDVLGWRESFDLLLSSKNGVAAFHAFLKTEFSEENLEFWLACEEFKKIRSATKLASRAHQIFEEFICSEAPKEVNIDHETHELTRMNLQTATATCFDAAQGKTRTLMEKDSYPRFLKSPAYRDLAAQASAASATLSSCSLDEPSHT
Target sequence (P09471 whole entry, looked up): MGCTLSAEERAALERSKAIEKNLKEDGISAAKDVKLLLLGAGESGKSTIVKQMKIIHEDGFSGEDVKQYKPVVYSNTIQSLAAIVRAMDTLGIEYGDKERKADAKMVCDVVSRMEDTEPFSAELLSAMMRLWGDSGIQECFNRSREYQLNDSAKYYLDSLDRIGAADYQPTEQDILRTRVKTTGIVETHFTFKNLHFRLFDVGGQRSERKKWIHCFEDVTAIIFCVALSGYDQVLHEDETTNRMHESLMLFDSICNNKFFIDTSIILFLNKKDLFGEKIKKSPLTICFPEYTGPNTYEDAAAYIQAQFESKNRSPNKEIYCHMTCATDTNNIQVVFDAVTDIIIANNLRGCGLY
Insulin prom inh = TRM-6 insulin promoter activity inhibition; TRM-6 cells (human fetal islet line), insulin promoter-eGFP reporter, imaging; reporter expression induced with tamoxifen; inhibition, % at 2 µM; 0.9% of 130,000 active;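 active = inhibition above the mean plus 3 SD, with well images judged a real hit on visual review, cut at about 60% in these data, passing the limit was not always enough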
HSV augment = increases HSV replication in cells. maximum fold increase. 0.005% of 220,000 active. HSV replication augmentation in cells, fold increase;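 active = peak rise of 1.5-fold or more in the series; tested in PC3 cells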;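 note: first round at 10 µM; read as green reporter fluorescence; hits show the peak of a series up to 25 µM; 1 = signal of infected wells without compound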
PKD1 kinase inh = PKD1 (human) kinase inhibition | 0.056% of 200,000 active | inhibition, %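 (about 10 µM by stock and volumes)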 | Q15139 | PKD1 kinase fluorescence polarization assay;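 active = inhibition of 50% or more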;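 note: controls were vehicle for no effect and a reference inhibitor for full effect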
GALR2 agonist = activates the human galanin receptor 2. O43603. GALR2-expressing cells, agonist activation read-out. activation, %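 (tested at 5 µM)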. 0.48% of 140,000 active. AID 803;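 active = above mean plus 3 SD of all compounds, about 5% in these data, not always enough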;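 note: 0% = vehicle buffer wells and 100% = reference agonist at full effect; tested in CHO reporter cells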
Target sequence (O43603 whole entry, looked up): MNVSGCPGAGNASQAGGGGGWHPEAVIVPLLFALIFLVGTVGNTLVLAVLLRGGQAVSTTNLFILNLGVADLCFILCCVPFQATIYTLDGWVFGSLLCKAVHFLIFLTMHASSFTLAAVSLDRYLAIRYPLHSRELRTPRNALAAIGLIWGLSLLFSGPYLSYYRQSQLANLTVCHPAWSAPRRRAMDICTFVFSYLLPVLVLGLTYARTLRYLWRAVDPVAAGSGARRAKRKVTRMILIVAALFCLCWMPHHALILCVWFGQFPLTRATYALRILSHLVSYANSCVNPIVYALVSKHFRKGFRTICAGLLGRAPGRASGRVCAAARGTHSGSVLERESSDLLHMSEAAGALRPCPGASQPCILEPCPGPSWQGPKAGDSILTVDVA
Insulin prom inh cell count = recorded beside Insulin prom inh, whose call it bears; normalized cell count, %; measured here: cell count, toxicity; reference of the scale not given here;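 cells exposed to compound for 48 h; stained nuclei by imaging scaled within each plate; lower means fewer cells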
HSV augment primary fold = second read-out of HSV augment, no call of its own (marks repeat the call); fold increase; compound at 10 µM; measured here: primary screen fold increase 10 uM; tested in PC3 cells;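 GFP signal in the first replicate; 1 = infected wells without compound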
Numbers without * were called inactive; i = inactive; / = not tested or not shown; & = joins results of further samples. Outcome played no part in choosing rows; any-hit rate near 1.3%.

Every second line gives: Insulin prom inh cell count, PKD1 kinase inh, HSV augment, GALR2 agonist, HSV augment primary fold, RGS16-Gao HTS, Insulin prom inh
- C/C=C(/C)C(=O)O[C@H]1[C@@H](O)c2c(ccc3ccc(=O)oc23)OC1(C)C
→ 108, -8, i, -0.4, 0.86, 100, 5
- CC1(C)CC(=O)c2c(Cc3ccccc3)n[nH]c2C1
→ 101, 8, i, -2.8, 0.99, 120, -23
- CC1CCN(c2ncnc3nc[nH]c23)CC1
→ /, 22, i, -2.1, 1, 109, /
- O=C(NC1CCCC1)c1cccc(Cn2cc([N+](=O)[O-])cn2)c1
→ 105, -4, i, -0.9, 0.93, 102, -21
- Cc1nc(C(C)NC(=O)CCc2nnc(-c3ccsc3)o2)cs1 (stereo not given)
→ /, 0, i, /, 0.9, 100, /
- O=C(CCNC(=O)c1ccccc1Cl)Nc1nc(-c2ccc3ccccc3c2)cs1
→ 124, -3, i, -0.7, 0.91, 109, 8
- COC(=O)C1C(=O)C2=C(CC1C)NC(C)=C(C(=O)OC1CCCCC1)C2c1ccc(N(C)C)cc1 (stereo not given)
→ 98, -5, i, 1.5, 0.86, 105, 53
- NC(=O)[C@@H]1CC2(CC(c3cccc(NC(=O)CC(c4ccccc4)c4ccccc4)c3)=NO2)CN1C(=O)COc1ccc(Cl)cc1 (stereo not given in full)
→ /, /, i, /, 0.8, 106, /
- CC(C)NC(=O)C1CC(=O)N(C(C)c2ccccc2)C1 (stereo not given)
→ 98, 3, i, -2.3, 0.96, 71, -27
- CC(Oc1ccccc1)c1ccnn1S(=O)(=O)c1ccccc1 (stereo not given)
→ 108, -1, i, -3.5, 1, 105, -31
- CCCCCCN(C(=O)CCCCCN1C(=O)NC(c2ccccc2)C(C(=O)OCc2ccccc2)=C1C)C(C(=O)NCCCC)c1ccc(OCC(=O)OC)c(C(=O)OC)c1 (stereo not given)
→ /, /, i, /, 0.54, 115, /
- CCOC(=O)N1CCC(Nc2nc3ccccc3n3nnnc23)CC1
→ 75, -4, /, 0.4, /, 99, -19
- COC(=O)c1sc2ccccc2c1NC(=O)c1ccc(S(=O)(=O)N2CCC(C)CC2)cc1
→ /, -3, i, -2.9, 1, 103, /
- NS(=O)(=O)c1cccc(NC(=O)CN2CCN(Cc3ccc4c(c3)OCO4)CC2)c1
→ 115, -13, i, -1.2, 1, 110, -22
- COc1ccccc1C(=O)Nc1ccccc1SC
→ 107, 0, i, -1.8, 0.82, 107, -21
- COc1cc(/C=C/C(=O)O)cc(S(=O)(=O)N2CCCc3ccccc32)c1OC
→ /, /, i, /, 1.1, 104, /
- Cc1ccc2[nH]cc(CCNC(=O)/C=C/c3ccco3)c2c1
→ /, /, i, /, 0.93, 104, /
- NC(=O)COC(=O)c1cccc(S(=O)(=O)N2CCCc3ccccc32)c1
→ 55, -3, i, /, 1.1, 109, 33
- Fc1cc(Br)ccc1NC(=S)Nc1ccccc1
→ /, -7, i, -0.2, 1.1, 83, /
- Cc1ccccc1OCC(O)Cn1c(=N)n(CCN2CCOCC2)c2ccccc21 (stereo not given)
→ 90, -3&0, i, -1.5, 0.8&0.82, 107&101, -150

(cont.)
Every second line gives: Insulin prom inh cell count, PKD1 kinase inh, HSV augment, GALR2 agonist, HSV augment primary fold, RGS16-Gao HTS, Insulin prom inh
- NC(=O)C1(N2CCCCC2)CCN(C(=O)CSc2nc3ccccc3o2)CC1
→ 79, 5, i, -2.5, 0.94, /, 0
- COc1cccc(NC(=O)Nc2ccccc2Br)c1
→ /, -4, i, /, 0.98, 105, /
- C=CCOc1c(CNn2cn[nH]c2=S)cccc1OC
→ /, -2, i, /, 1.1, 99, /
- COC(=O)[C@H](CC(C)C)NC(=O)N1CCCCC1C (stereo not given in full)
→ /, /, i, /, 1.2, 104, /
- On1nnc2ccccc21
→ /, /, i, /, 0.95, 79, /
- O=C(NC1CCCCC1)C1CCN(C(=O)c2ccc(-c3ccccc3)cc2)CC1
→ /, -11, i, /, 0.92, 104, /
- O=C(COc1ccccc1Cl)Nc1ccc(Cl)cn1
→ 128, -15, i, -2.0, 1, 105, 33
- CC(C)Nc1nc(NC(C)C)nc(C(=O)OCCO)n1
→ /, 6, i, -2.5, 0.96, 91, /
- CC(C)CCN1CCN(CC(c2ccccc2)c2ccccc2)CC1CCO (stereo not given)
→ 123, 0, i, /, 0.95, 97, -8
- COc1cccc(-n2c(SCc3cc(=O)oc4cc(O)c(O)cc34)nc3ccccc3c2=O)c1
→ 83, 4, i, 2.0, 0.91, 100, 43
- Cc1ccc(NC(=O)Nc2ccc([N+](=O)[O-])cc2)nc1
→ /, 1, i, /, 0.98, 102, /
- CC(=O)N(NC(=O)c1ccc(C)cc1)C1CC(=O)N(c2ccccc2Cl)C1=O (stereo not given)
→ /, 2, i, -0.8, 1.1, 110, /
- CCOC(=O)N1CCN(C(=O)CN(c2ccc(OCC)cc2)S(C)(=O)=O)CC1
→ 98, -6, i, -2.8, 0.86, 31, 59
- CC1CCC/C(=N\NC(=O)COc2ccccc2Cl)C1 (stereo not given)
→ /, -1, i, -0.6, 1.3, 95, /
- COc1ccc(C2C(C(C)=O)=C(O)C(=O)N2c2nccs2)cc1OC (stereo not given)
→ /, -4, i, 0.4, 1.3, 116, /
- COCCC(=O)N1CCCC(CNS(=O)(=O)c2ccc(OC)cc2)C1 (stereo not given)
→ /, 2, i, /, 0.95, 109, /
- COc1ccc(C(=O)Nc2ccccc2C(=O)N2CCCCC2C)cc1 (stereo not given)
→ 91, -5, i, /, 0.99, 103, 24
- COc1cc(OC)c(OC)cc1CN1CCc2ccccc2C1
→ 83, 0, i, -1.2, 0.64, 125, -32
- COC(=O)[C@H](Cc1ccccc1)NC(=O)N1CCN(Cc2ccccc2)CC1
→ /, -3, i, -0.4, 1.1, 100, /
- CCC(=O)NC(=S)Nc1ccc(NC(=O)c2cccnc2)cc1
→ /, /, i, /, 0.95, 101, /

An excerpt from above in order of the PKD1 kinase inh value, lowest first:
SMILES | PKD1 kinase inh | HSV augment | GALR2 agonist | HSV augment primary fold | RGS16-Gao HTS
COC(=O)[C@H](Cc1ccccc1)NC(=O)N1CCN(Cc2ccccc2)CC1 | -3 | i | -0.4 | 1.1 | 100
C=CCOc1c(CNn2cn[nH]c2=S)cccc1OC | -2 | i | / | 1.1 | 99
CC(C)Nc1nc(NC(C)C)nc(C(=O)OCCO)n1 | 6 | i | -2.5 | 0.96 | 91

Only Insulin prom inh cell count, for two of the compounds above:
molecule	Insulin prom inh cell count
COc1ccc(C(=O)Nc2ccccc2C(=O)N2CCCCC2C)cc1 (stereo not given)	91
COc1cccc(-n2c(SCc3cc(=O)oc4cc(O)c(O)cc34)nc3ccccc3c2=O)c1	83

(list continues)
Every second line gives: Insulin prom inh cell count, PKD1 kinase inh, HSV augment, GALR2 agonist, HSV augment primary fold, RGS16-Gao HTS, Insulin prom inh
- Cc1sc2nc(CSc3ccc([N+](=O)[O-])cc3)[nH]c(=O)c2c1C
→ /, 0, i, /, 1, 94, /
- CCC(=O)Nc1ccc(C(=O)Nc2ccc3c(c2)OCO3)cc1
→ 75, -1, i, -0.9, 0.99, 100, -54
- Cc1oc(-c2ccc(Cl)cc2)nc1CN1CCC(C(=O)NCc2ccco2)CC1
→ /, 6, i, -2.4, 0.92, 101, /
- O=C(CCSc1nnc2scc(-c3ccccc3)n12)NCc1ccc2c(c1)OCO2
→ 85, -1, i, -3.8, 1.3, 108, -21
- CC(Oc1ccc(Cl)cc1Cl)C(=O)Nn1cnnc1 (stereo not given)
→ 86, 0, i, -0.6, 1.1, 87, 56
- COCCNS(=O)(=O)c1cc(C(=O)O)ccc1OC
→ 108, -4, i, /, 0.96, 107, -20
- Fc1ccccc1OCCCCCN1CCCC1
→ /, -6, i, -1.7, 1, 103, /
- CC1=[N+](C)N(c2ccccc2)C(=O)C1N=Cc1ccc(Cl)cc1 (stereo not given)
→ 142, 0, i, -2.3, 0.91, 89, 33
- O=C(CSc1nnnn1-c1ccccc1)N1N=CCC1c1ccccc1 (stereo not given)
→ /, 6, i, -1.2, 1, 100, /
- COC(=O)C1=C(C)N(C)C(=O)NC1c1ccc(C)cc1 (stereo not given)
→ 118, -4, i, -2.2, 1, 104, -13
- COc1ccc(CN2C(=O)c3cccnc3C2Nc2ccc(OC)c(Cl)c2)cc1 (stereo not given)
→ 127, 4, i, -2.7, 1.1, 105, 0
- COc1ccc(S(=O)(=O)NC2CC2)cc1C(=O)N1CCOCC1
→ /, -5, i, /, 0.97, 95, /
- COc1cc(Br)c(CC(=O)O)cc1OC
→ /, /, i, /, 0.97, 110, /
- CCCOc1ccc2c(=O)c(N3C(=O)c4ccccc4C3=O)c(C)oc2c1
→ 111, -2, i, -3.5, 1.1, 102, -17
- CNC(=O)CN1C(=O)c2cccc3cccc1c23
→ 155, -2, i, -1.4, 1.1, 98, 32
- COc1cc(/C=N/OCC(=O)Nc2cc(C)cc(C)c2)ccc1OCc1ccc(Cl)cc1
→ 53, 5, i, -0.7, 1, 43, -12
- COc1cccc(/C=N/NC(N)=S)c1OCc1ccccc1Cl
→ 102, -3, i, -1.7, 0.99, 110, -25
- Cc1ccc(C)c(NC(=O)CSc2nnc(-c3ccco3)o2)c1
→ /, 0, i, -2.0, 0.92, 94, /
- O=c1cc(CSc2ccccn2)nc(N2CCN(c3ccccc3)CC2)[nH]1
→ /, 2, i, -1.5, 0.89, 101, /
- CN1CCN(C(=O)/C(C#N)=C/c2ccc(F)cc2)CC1
→ /, -5, i, /, 0.95, 105, /

(further entries)
Every second line gives: Insulin prom inh cell count, PKD1 kinase inh, HSV augment, GALR2 agonist, HSV augment primary fold, RGS16-Gao HTS, Insulin prom inh
- Cc1nc2ccc(NC(=O)C3COc4ccccc4O3)cc2s1 (stereo not given)
→ /, /, i, /, 0.93, 106, /
- COc1cc(OC)cc(C(=O)N2c3ccc(F)cc3CCC2C)c1 (stereo not given)
→ 96, 6, i, -0.3, 0.96, 101, -31
- COc1ccc(CNC(=O)Cc2nn(C)c(=O)c3ccccc23)cc1
→ 82, 5, i, -0.7, 0.8, 99, -3
- COCCNC(=O)C1c2ccccc2C(=O)N(CCOC)C1c1ccc(F)cc1 (stereo not given)
→ 131, -8, i, -1.5, 0.74, 103, 21
- O=C(CCc1nnc(C2CCCCC2)o1)N1CCC(Oc2cccnc2)CC1
→ /, -5, i, /, 0.98, 108, /
- O=c1[nH]c2ccccc2nc1/C=C(\O)C1CC1
→ 94, -10, i, 0.5, 1, 81, 3
- Cc1cc[n+](CC(=O)N2CCCc3ccccc32)cc1
→ 77, -7, i, /, 0.98, 101, 2
- CCCCN(C(=O)CCC(=O)Nc1cc(C)on1)C(C(=O)NC(C)(C)C)c1cccc(OC)c1OC (stereo not given)
→ 55, -3, i, -1.7, 0.98, 98, -500
- O=C(CSc1nc2ccccc2c(=O)n1-c1ccc(F)cc1F)Nc1ccc2c(c1)CCC2
→ 120, -5, i, 0.1, 0.89, 106, -30
- COc1ccc(NC(=O)CN(C)S(=O)(=O)c2cccc3nsnc23)cc1
→ /, -2, i, /, 0.87, 101, /
- CCOC(=O)CCC(=O)Nc1ccc(S(=O)(=O)N2CCCCC2)cc1
→ /, -8, i, /, 1, 104, /
- Cc1cccc(C(=O)O/N=C/c2c(N3CCOCC3)n(C)c3ccccc23)c1
→ /, -3, i, -1.0, 0.5, 101, /
- COCCN1CCc2c(C)nc3c(-c4ccc(OC)c(OC)c4)cnn3c21
→ 128, 0, i, 0.5, 0.82, 99, 9
- O=C(c1ccccc1)c1ccc(OCCOCCN2CCN(Cc3ccccc3)CC2)cc1
→ /, -6, i, /, 0.72, 104, /
- COc1cc(C2SCC(=O)N2CCc2ccc(OC)c(OC)c2)ccc1O (stereo not given)
→ 96, -8, i, /, 0.93, 101, -18
- CCO[C@@H]1OC(C(=O)N2CCN(Cc3ccc4c(c3)OCO4)CC2)=C[C@H](c2ccc(C(F)(F)F)cc2)[C@H]1CCCO
→ /, -2, i, /, 0.83, 101, /
- CN(C)/C=N/c1sccc1C(N)=O
→ 117, 1, i, -3.2, 0.93, 102, -100
- COc1ccc(-c2nn(C)c(=O)c3ccccc23)cc1CNS(C)(=O)=O
→ 66, 0, i, 0.0, 0.89, 100, 11
- Oc1ccc(/C=N/NC2=NCCCCC2)c(O)c1
→ 96, -4, i, -0.5, 1, 103, -8
